Compound activity from PubChem BioAssay.
HPGD inh = inhibitors of human 15-hydroxyprostaglandin dehydrogenase (HPGD). purified HPGD, NADH fluorescence kinetic, PGE2 substrate. P15428. AID 894. 150,000 tested, 4.3% active. Potency, µM, without a hit: at the highest dose activity change, negative = inhibition, actives largely listed as inhibitors; active = well fitted inhibition curve with a large enough effect (not every such curve was filed as active); inconclusive = small, poorly fitted or top-dose-only effect, or another doubt; inactive = no such curve, though single readings can be large or run the other way;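 also: top concentration of the series not given in the record; plate controls included wells without enzyme; inactives centre near -10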
Target sequence (P15428 whole entry, looked up): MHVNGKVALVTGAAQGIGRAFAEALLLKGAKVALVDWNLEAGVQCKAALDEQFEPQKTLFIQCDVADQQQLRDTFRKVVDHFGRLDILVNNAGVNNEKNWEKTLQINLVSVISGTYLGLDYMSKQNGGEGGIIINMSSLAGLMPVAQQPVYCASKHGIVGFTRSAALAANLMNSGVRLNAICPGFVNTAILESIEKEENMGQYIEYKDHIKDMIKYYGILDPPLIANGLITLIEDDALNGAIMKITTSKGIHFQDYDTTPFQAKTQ
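NADH formation kinetics: reaction with 30 uM PGE2 and 1 mM NAD+ (final), 20 nM enzyme, Tris-HCl pH 8 with Tween 20, after 15 min compound preincubation at room temperature. Fluorescence change, last versus first of five reads.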
* = called active by the depositor; ? = inconclusive. % is scaled to controls: 0 for no effect and ±100 for the full control effect; potency is read from the fitted curve at half-maximal effect. Not all compounds are listed (hit frequency here may not be typical).

HPGD inh | SMILES
-10% | Cc1ccccc1CN1CCN(CC(=O)NCCCN2CCN(c3ccc(F)cc3)CC2)C1=O
-10% | O=C(CNC(=O)c1ccc(F)cc1)N/N=C/c1cn[nH]c1-c1ccccc1
-11% | COc1ccc(OC)c(NC(=O)c2ccc3nc(-c4ccccc4)c(-c4ccccc4)nc3c2)c1
-4% | COc1ccccc1N1CCN(C(=O)COc2ccc(Cl)cc2)CC1
-9% | Cc1ccc(Nc2nnc(SCC(=O)Nc3ncc(C(F)(F)F)cc3Cl)s2)cc1
-5% | O=C(COC(=O)c1cccc(Oc2ccccc2)c1)NCc1ccco1
-13% | CC(=O)Nc1cccc(Oc2cc(C#N)c(C#N)cc2N2CCOCC2)c1
-13% | CCOc1cccc(C(=O)NC(=S)NCc2cccnc2)c1
-14% | O=C(CCCn1c(SCC(=O)NCC2CCCO2)nc2ccccc2c1=O)NCC1CCCO1 (configuration not stated)
-6% | Cc1ccc(C(=O)N/N=C\c2ccc([N+](=O)[O-])s2)cn1
-20% | COc1ccc(OCCSc2ncnc3nc[nH]c23)cc1
-7% | Cc1ccc(/C=C/C(=O)c2ccc(C)cc2)cc1
-13% | Cc1cccc(OCC(=O)Nc2cccc(C(=O)NCC(C)C)c2)c1
? | N=c1c(C(=O)NCc2ccc(F)cc2)cc2c(=O)n3ccccc3nc2n1Cc1ccco1
-16% | CCC1S/C(=N/N=C/c2ccco2)N(c2ccc(F)cc2)C1=O (configuration not stated)
-5% | Cc1sc2nc(CN3CCN(S(=O)(=O)c4cccc5nonc45)CC3)[nH]c(=O)c2c1C
-19% | CCN(CCNC(=O)C1CCCN(Cc2nc(-c3ccc(OC)cc3)oc2C)C1)c1ccccc1 (configuration not stated)
? | O=C(NCc1cccs1)c1ccc([N+](=O)[O-])cc1Cl
-17% | CCN(CC)c1ccc2cc(C(C)=O)c(=O)oc2c1
-13% | COc1cccc(N/C(SC)=C(/C#N)C(N)=O)c1
-24% | CCCc1cc(-c2nc(-c3ccc(C)cc3)cs2)ccn1
-13% | COc1ccc(C(C(=O)NC2CCCC2)N(C(=O)c2snc(-c3ccc(F)cc3)c2N)c2ccc(F)cc2)cc1 (configuration not stated)
-11% | Cc1cc(C)n(C(=O)c2sc3cc(F)ccc3c2Cl)n1
-9% | O=C(/C=C/c1ccc2c(c1)OCCCO2)c1ccc2ccccc2c1O
-22% | CCN(CC)S(=O)(=O)c1ccc(NC2c3ccccc3C(=O)N2Cc2ccc3c(c2)OCO3)cc1 (configuration not stated)
-7% | O=C1c2ccccc2C(=O)N1c1cccc(-c2nc3ccccc3o2)c1
-12% | COC(=O)CN1C(=O)C(O)(CC(=O)c2ccc(C)cc2)c2cc(Br)ccc21 (configuration not stated)
1% | COCCNC(C)C(=O)Nc1ccc(Br)cc1 (configuration not stated)
-28% | Cc1csc2ncc(C(=O)NCc3ccc4c(c3)OCO4)c(=O)n12
? | COc1cccc(Oc2coc3c(CN4CCOCC4)c(O)ccc3c2=O)c1
0% | Cc1cc(NC(=O)C2CC(c3ccc(F)cc3)=NO2)n(-c2ccccc2)n1 (configuration not stated)
-15% | COc1ccc(C(=O)NNC(=O)CSc2nnc(COc3ccc4ccccc4c3)n2C)cc1
? | COC(=O)c1ccc(NC(=O)c2ccccc2NS(=O)(=O)c2ccccc2)cc1
-24% | C#CCCCCCCCCCCCC(O)CC(O)COC(C)=O (configuration not stated)
? | Cc1ccc(-c2cc(-c3ccc(C)o3)nc(N)c2C#N)cc1
-4% | CC(C)=CCc1c(O)cc(O)c2c1O[C@H](c1ccccc1)CC2=O
-16% | N#CC1=C(N)N2C(=C(C#N)C13CCN(Cc1ccccc1)CC3)Nc1ccccc12
-5% | CCN(CC(=O)NC1CCS(=O)(=O)C1)C(=O)C(c1ccccc1)c1ccccc1 (configuration not stated)
? | CC(C)C1Cc2[nH]c(=O)c(C(=O)O)cc2CO1 (configuration not stated)
-8% | Cc1cc(O)ccc1NC1=CC(=O)CC(C)(C)C1
-5% | O=S1(=O)N=C2CCCN2C(c2ccc(F)cc2)N1 (configuration not stated)
-24% | Cc1ccccc1CSc1nnc(NC(=O)C2COc3ccccc3O2)s1 (configuration not stated)
-27% | CC(=O)Oc1ccc2c(=O)c(Oc3ccccc3)coc2c1OC(C)=O
-12% | CCN1CCN(C(=O)c2cc3c(-c4ccc(Cl)cc4)nn(C)c3s2)CC1
-2% | COc1ccc(NC(=S)N(CCCN2CCN(C)CC2)Cc2cccs2)cc1

Two entries from above, with bars between the fields:
SMILES | HPGD inh
O=C1c2ccccc2C(=O)N1c1cccc(-c2nc3ccccc3o2)c1 | -7%
Cc1cccc(OCC(=O)Nc2cccc(C(=O)NCC(C)C)c2)c1 | -13%

In the list so far, these have a Cl atom.
HPGD inh | SMILES
-4% | COc1ccccc1N1CCN(C(=O)COc2ccc(Cl)cc2)CC1
-9% | Cc1ccc(Nc2nnc(SCC(=O)Nc3ncc(C(F)(F)F)cc3Cl)s2)cc1
? | O=C(NCc1cccs1)c1ccc([N+](=O)[O-])cc1Cl
-11% | Cc1cc(C)n(C(=O)c2sc3cc(F)ccc3c2Cl)n1
-12% | CCN1CCN(C(=O)c2cc3c(-c4ccc(Cl)cc4)nn(C)c3s2)CC1

Remaining list, next part
HPGD inh | SMILES
-10% | CCN(CC)S(=O)(=O)c1ccc(NC(=O)C2CCCN(C(=O)c3ccc(Cl)cc3)C2)cc1 (configuration not stated)
-17% | CCC(=O)Nc1ccc(C(=O)OCC(=O)c2ccc(C)c([N+](=O)[O-])c2)cc1
-7% | O=C(O)c1cccc(N2CCCCS2(=O)=O)c1
-29% | CCOC(=O)c1sc(NC(=O)CSc2nc(C)cc(C)c2C#N)c(C#N)c1C
? | COCCn1c(N)c(S(=O)(=O)c2cccs2)c2nc3ccccc3nc21
-11% | O=C(CC(C(=O)N1CCc2ccccc21)n1ccnc1)NCc1cccnc1 (configuration not stated)
-30% | COc1ccc(N(Cc2cc3ccccc3[nH]c2=O)C(=O)C2CCCO2)cc1 (configuration not stated)
-4% | CCN(CC)S(=O)(=O)c1ccc(Cl)c(C(=O)Oc2cccc(-c3cnc4ccccc4n3)c2)c1
-8% | Cc1ccc(-n2c(SCC(=O)Nc3ccc4c(c3)OCO4)nnc2-c2ccoc2C)cc1
-9% | CCCOc1ccc(N2C(=O)CC(N(CCC)C(=O)CCC(=O)O)C2=O)cc1 (configuration not stated)
-23% | COc1ccc(C(=O)NC(=O)Nc2ncccc2C)cc1
-18% | COc1cc(NC(=O)c2csc3c2CCCC3)ncn1
-4% | O=C(CSc1ccc(Cl)cc1)Nc1ccc(N2CCN(C(=O)c3ccco3)CC2)cc1
-21% | O=C(CNC(=O)c1cc2c(s1)CCC2)Nc1ccccc1Br
-21% | CCCOc1ccc(C(=O)CCN2CCCCC2)cc1
-12% | CCc1ccc(NC(=O)CSc2nc3c(c(=O)n(C)c(=O)n3C)n2C)cc1
-7% | CCc1c(C)c(C#N)c2nc3ccccc3n2c1NCC1CCCO1 (configuration not stated)
? | CS(=O)(=O)N1CCN(c2ccccc2NC(=O)c2ccc(-c3ccc(Cl)cc3Cl)o2)CC1
-8% | CC1=CC2(C#N)C3(N=C(N)C2(C#N)C(c2ccccc2)N1)OCCO3 (configuration not stated)
-9% | O=C1OC(=O)c2cc([N+](=O)[O-])ccc21
-26% | Cc1ccc2cc(CN(Cc3ccc(F)cc3)Cc3nnnn3C3CCCC3)c(=O)[nH]c2c1
-2% | C=CCn1c(-c2ccccc2)ccc(C#N)c1=O
-12% | Cc1ccc(C(=O)Nc2c(C(=O)N3CCOCC3)cnn2-c2ccccc2)cc1
-9% | CN(c1ccccc1)c1ccc(/C=c2\s/c(=C(/C#N)C(=O)C(C)(C)C)n(Cc3ccco3)c2=O)cc1
? | COc1ccccc1-n1cnc2c(c1=O)c1nc3ccccc3nc1n2-c1ccc(C)c(C)c1
-5% | CC1Cc2ccccc2N1C1=NS(=O)(=O)c2ccccc21 (configuration not stated)
-2% | COc1cccc(NC(=O)N[C@@H](Cc2ccccc2)C(=O)O)c1
-22% | Fc1cccc(Nc2nc3ccccc3n3nnnc23)c1
-4% | O=C(CCC(=O)c1ccc(F)cc1)Nc1cccnc1
-4% | CCN1C(=O)CSc2ccc(C(=O)NC3CCCCC3)cc21
-17% | CSc1nsc(NC(=O)Cc2ccccc2)n1
-24% | c1coc(CNc2ncnc3ccccc23)c1
-6% | Cc1ccc(C(=O)NCc2nnc(SCC(=O)Nc3ccccc3)n2C)cc1
-8% | CN(c1ccccc1)S(=O)(=O)c1cccc(NC(=O)Cc2c(F)cccc2Cl)c1
-15% | CCOc1ccc2nc(NC(=O)c3ccc(S(=O)(=O)N4CCOCC4)cc3)sc2c1
5% | CC1=C(C)C[C@@]23CCCN2C(=O)CCC[C@H]3C1
? | COc1ccc(COc2cc(-c3cccc(OC)c3)nc3ccc(NC(=O)c4cccnc4)cc23)cc1
-6% | Cc1ccc2[nH]c(=O)c(CN(Cc3ccc4c(c3)OCO4)Cc3nnnn3Cc3ccco3)cc2c1
-8% | c1ccc(COc2ccc(Oc3nc(N4CCCCC4)nc(N4CCOCC4)n3)nn2)cc1
-18% | Clc1ccc(-n2nnnc2SCc2cn3ccccc3n2)cc1
-7% | CCCn1c(N)c(C(=O)CSc2nc(C)cs2)c(=O)n(C)c1=O
-19% | COc1ccc(C2NC(=O)CS2)cc1 (configuration not stated)
-12% | O=C(NCc1ccccc1)C1CC(=O)N(c2ccc(OCC(=O)N3CCCC3)cc2)C1 (configuration not stated)
? | CC(=O)OC1c2c(ccc3ccc(=O)oc23)OC(C)(C)C1OC(=O)CC(C)C (configuration not stated)
? | C=CCNc1nc(N)c(C(=C(C#N)C#N)c2ccc(Br)cc2)s1
-7% | On1cnnc1-c1ccccc1
-9% | CCCCCNc1nc(NCCCO)c(C#N)c2c1CN(C)CC2
-2% | Cc1cccc(NC(=S)N2CCn3cccc3C2c2cccnc2)c1 (configuration not stated)
-15% | N#Cc1c(-c2ccccc2F)cc(C2CC2)nc1SCC(=O)c1cccs1
? | O=c1c2[nH]c3ccc(Br)cc3c2ncn1CCCn1ccnc1
-5% | CCOc1ncccc1C(=O)Nc1ccc(Cl)cc1
-8% | CSCCC1NC2(C(=O)Nc3ccc(Cl)cc32)[C@@H]2C(=O)N(C3CCCC3)C(=O)[C@H]12 (some centres not stated)
-8% | Nc1nc(C(=O)O)c(N=Nc2ccccc2)c(=O)[nH]1
3% | COc1cc(C(=O)N2CCC(n3cnc4cc(F)ccc43)CC2)cc(OC)c1OC
14µM* | COc1c(O)c(O)cc2c1oc1c3cc(C)ccc3oc(=O)c21
-3% | CCCc1nc(SCC(=O)Nc2nnc(CC)s2)c2c(C)c(C)sc2n1
-13% | COC(=O)c1sc(NC(=O)C(C)c2ccccc2)nc1C (configuration not stated)
-4% | COc1cc(OC)c(C#N)c(S(=O)Cc2ccccc2)c1 (configuration not stated)
? | c1nc2sc3c(c2c2nnnn12)CCC3
-30% | Fc1cc(F)c2nc(N3CCCCC3)sc2c1

(next part)
HPGD inh | SMILES
-24% | Cn1c(/C(C#N)=C/Nc2ccccn2)nc2ccccc21
-22% | COc1ccc(CNC(=O)c2cc(-c3ccccc3OC)on2)cc1
-5% | C=C[C@@]1(C)CC[C@H](O)[C@H]2C(=O)CCC[C@@H]21
? | CC(C)c1ccc(-c2c(C#N)c(N)nc(SCC(=O)N3CCCCCC3)c2C#N)cc1
35µM* | Cc1ccc(N2C(=O)[C@@H]3[C@H](C2=O)[C@H]2C=CC=NN2[C@@H]3C(=O)Nc2ccc(Cl)cc2)cc1
-15% | Cn1c(COc2ccccc2)nnc1SCCN1CCOCC1
-7% | CCNC(=O)c1c(O)c2ccccc2[nH]c1=O
-5% | O=C(NCCN1CCOCC1)c1ccc(CS(=O)(=O)c2c(Cl)cccc2Cl)o1
-1% | COC(=O)c1sc2cc(C(F)(F)F)cnc2c1-c1ccccc1
-16% | CCOC(=O)c1sc(NC(=O)C2C3C=CC(C3)C2C(=O)O)nc1C (configuration not stated)
-6% | Cc1ccc(Cn2c(=N)n(CC(O)c3ccco3)c3ccccc32)cc1 (configuration not stated)
-6% | Cc1cc(S(=O)(=O)N2CCN(c3ccccc3O)CC2)c(C)s1
-8% | Cc1ccc(-n2nc(C)c(/C=N/NC(=O)c3cccs3)c2Cl)cc1
-16% | CCn1c(SCC(=O)OC)nc2sc3c(c2c1=O)CCC3
-4% | Cc1cc(=O)[nH]c(SCC(=O)NCc2ccco2)n1

The closing 4 compounds of the part before open the next one.
HPGD inh | SMILES
-6% | Cc1cc(S(=O)(=O)N2CCN(c3ccccc3O)CC2)c(C)s1
-8% | Cc1ccc(-n2nc(C)c(/C=N/NC(=O)c3cccs3)c2Cl)cc1
-16% | CCn1c(SCC(=O)OC)nc2sc3c(c2c1=O)CCC3
-4% | Cc1cc(=O)[nH]c(SCC(=O)NCc2ccco2)n1
-21% | N#Cc1cccc(NC(=O)COC(=O)c2ccccc2C(=O)c2ccc(Cl)c([N+](=O)[O-])c2)c1
0% | CCOc1ccc(C(CC(=O)O)NC(=O)COc2ccccc2)cc1 (configuration not stated)
? | COc1cc(/C=C/C(=O)Nc2nnc(CC(C)C)s2)cc(OC)c1OC
-22% | Cc1cc(C)c(NC(=O)C2CCN(c3cnccn3)CC2)c(C)c1
-21% | CCOC(=O)CSc1nc2ccccc2c(=O)n1CC1CCC(C(=O)NCc2ccco2)CC1 (configuration not stated)
-3% | COc1ccc(C)cc1S(=O)(=O)NC1CCCCC1
-3% | N#Cc1ccc(CSc2nnc(-c3cccs3)n2-c2ccccc2)cc1
-17% | COC(=O)c1ccc(SCC(=O)N2CCC(C)CC2)c([N+](=O)[O-])c1
